Beta2AR agonist = human beta-2 adrenergic receptor agonism by FAP; actives 0.43% (n = 340,000); response, % (test concentration not listed); Am2.2-beta2AR cells, FAP receptor internalization, flow cytometry; reference of the scale not given here; P07550;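 active = response above a set limit, near 3 SD of response in nonfluorescent compounds, cut at about 42% in these data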;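 note: stock transfer was 100 nL into about 11 µL; a reference agonist was the positive control; negative values mostly stem from fluorescent compounds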
Target sequence (P07550 whole entry, looked up): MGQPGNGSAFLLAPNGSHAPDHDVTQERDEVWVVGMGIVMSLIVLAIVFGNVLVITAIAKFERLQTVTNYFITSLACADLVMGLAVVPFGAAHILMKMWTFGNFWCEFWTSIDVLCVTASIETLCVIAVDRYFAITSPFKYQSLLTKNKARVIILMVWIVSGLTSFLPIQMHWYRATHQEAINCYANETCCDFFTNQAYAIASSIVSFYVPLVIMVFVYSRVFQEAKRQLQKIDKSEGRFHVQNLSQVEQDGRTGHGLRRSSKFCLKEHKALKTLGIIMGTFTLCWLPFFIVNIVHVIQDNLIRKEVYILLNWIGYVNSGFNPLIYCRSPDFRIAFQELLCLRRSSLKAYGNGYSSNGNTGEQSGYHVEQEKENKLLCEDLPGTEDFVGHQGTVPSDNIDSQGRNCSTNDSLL
rRNA inh HTS = inhibitors of bacterial rRNA selective over humanized ribosomes; actives 1.6% (n = 350,000); GFP signal change (wild-type ribosome), % (no concentration beside the values); E. coli WT GFP vs humanized-ribosome RFP mutants, fluorescence, 24 h; active compounds read low; DMSO median 0, no signal -100; AID 720706;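 active = significant combined selectivity score with lowered wild-type GFP, culture density cut under 30%, mutant RFP and density less affected; inactive = any of these conditions unmet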; note: one replicate is shown; some compounds called inactive have numbers as strong as hits
Calb FLC = C. albicans growth modulation with fluconazole; C. albicans CaCi-2 (fluconazole-resistant clinical isolate) + fluconazole, Alamar Blue growth, 48 h; growth inhibition, % (test concentration not listed); actives 0.57% (n = 300,000); AID 1979;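 active = most replicates above 75%; inconclusive = exactly half above 75%; inactive = most below 75%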;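 note: all wells also contain fluconazole at 8 µg/ml as a sub-toxic cotreatment; 0% = median of DMSO wells and 100% = median of geldanamycin control wells; wells of about 8 µL received 7.5 nL stock; the first replicate is given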
LANA-H2B inh = blocks KSHV LANA binding to histone H2A/H2B; Q9QR71; cell-free LANA-H2A/H2B peptide, fluorescence polarization; inhibition, % (test concentration not listed); actives 0.6% (n = 320,000); AID 2629; in the data active = inhibition mostly above about 10%, no sharp cut-off; inactive = mostly below about 6.7%;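 note: stock transfer was 7.5 nL into about 10 µL; 0% = median of vehicle wells and 100% = median of positive control wells; one replicate is shown; the record names a cut of 25% in any replicate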
Beta apoptosis = blocks beta cell apoptosis; INS-1E cytokine-induced death, ATP luminescence, 48 h; percent of positive-control rescue, neutral wells zero; protection from apoptosis, % (test concentration not listed); actives 0.8% (n = 300,000); AID 435005;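 active = all replicates at 75% or more, or half of them and the mean; inconclusive = half reach 75% but not the mean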;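 note: 0% = cytokine-treated negative control wells and 100% = positive control rescue; higher means more ATP so stronger rescue from cytokine killing; wells of about 40 µL received 100 nL stock; the first replicate is given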
T cruzi inh = blocks replication of Trypanosoma cruzi. inhibition, % (test concentration not listed). actives 1.4% (n = 300,000). T. cruzi beta-gal in NIH3T3, luminescence, 90 h;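 active = mean inhibition across valid replicates above about 55%, limit read from the data; inconclusive = mean below that limit but half or more replicates reach it; inactive = mean below it, under half of replicates reach it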;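 note: signal also drops with host cell toxicity which is not excluded here; 0% = plate median of DMSO wells and 100% = zero luminescence signal; higher percent means less beta-gal luminescence so fewer parasites; stock transfer was 50 nL into about 50 µL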
ALR inh = human ALR oxidase inhibition via reduced H2O2; P55789; inhibition, % (test concentration not listed); purified ALR, DTT oxidation, H2O2 HRP-luminol luminescence; actives 3.8% (n = 290,000);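 active = mean and each replicate at 75% or more; inconclusive = only one of the two met; inactive = neither met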;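 note: stock transfer was 7.5 nL into about 7.5 µL; 0% = neutral wells and 100% = wells with inactivated enzyme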
Target sequence (P55789 whole entry, looked up): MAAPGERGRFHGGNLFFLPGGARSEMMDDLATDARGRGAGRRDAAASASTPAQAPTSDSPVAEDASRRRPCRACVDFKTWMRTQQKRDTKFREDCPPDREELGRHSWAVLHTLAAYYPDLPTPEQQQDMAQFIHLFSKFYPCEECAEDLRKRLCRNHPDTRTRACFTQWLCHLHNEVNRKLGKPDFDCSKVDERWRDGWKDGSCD
A1 inh = inhibitors of the anti-apoptotic protein A1, read as caspase activation; MEF A1-2A-BIM cells, Caspase-Glo 3/7 luminescence, 3 h; percent of clofoctol response, vehicle zero; caspase activation, % (no concentration beside the values); actives 0.066% (n = 330,000);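 active = over half of replicate activation scores above 10%, or exactly half above 10 with the replicate mean above 10; inconclusive = replicate mean below 10 yet half the replicates above 10; inactive = over half of replicates below 10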;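 note: wells of about 30 µL received 50 nL stock; many hits fall short of the cut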
rRNA inh HTS OD600 = recorded beside rRNA inh HTS, whose call it bears; OD600 change, %; measured here: OD600 growth;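 optical density of the mix in the first replicate; 0 = DMSO median and -100 = no signal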
rRNA inh HTS RFP = recorded beside rRNA inh HTS, whose call it bears; RFP signal change, %; measured here: RFP humanized mutant strains;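 first replicate; 0 = DMSO median and -100 = no signal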
The depositor's hits bear a star; ? = inconclusive; · = no result given. These rows are one share of the data; the hit share may differ from the screen's.

SMILES | Beta2AR agonist | rRNA inh HTS | rRNA inh HTS OD600 | rRNA inh HTS RFP | Calb FLC | LANA-H2B inh | Beta apoptosis | T cruzi inh | ALR inh | A1 inh
CCN(CC)S(=O)(=O)c1ccc2c(c1)nc(SCC(N)=O)n2-c1ccc(OC)cc1 | -1 | · | · | · | 5 | 1.7 | -1 | 11 | -28 | -1.2
CCOc1ccc(C(C(=O)NC2CCCC2)N(CCOC)C(=O)CNC(=O)c2ccco2)cc1 (stereo unspecified) | 5 | 8 | 15 | 1.7 | 5 | -4.2 | 2 | -12 | 0 | -0.7
COc1cc(CCC(=O)N2CCN(S(=O)(=O)c3ccc(C)cc3)CC2)cc(OC)c1OC | 4 | -2 | 6 | 32 | · | -11 | -1 | · | · | -0.6
C=C(C)CSc1nnc(CCCCCNC(=O)OC(C)(C)C)o1 | -5 | -4 | 2 | 0.1 | -1 | 1.3 | 3 | 10 | 22 | 1.8
CCOC(=O)c1c(NC(=S)Nc2ccccc2)sc2c1CCN(C)C2 | -6 | · | · | · | 19 | -3.3 | 2 | 39 | 63 | 1.3
CCC/C(O)=C1\C(=O)CCCC1=NCCc1c(C)[nH]c2ccc(OC)cc12 | 0 | -17 | -12 | 0.9 | 3 | 2.7 | -4 | 5 | 4 | 0.7
O=C(NCCOc1ccccc1)c1ccccc1NC(=O)C1CCCO1 (stereo unspecified) | -5 | -1 | -1 | -2.5 | -10 | -0.3 | 2 | -7 | -2 | -0.2
CCCNc1ncnc2sc(C)c(C)c12 | 1 | · | · | · | · | 3.0 | 12 | · | -12 | -0.2
COc1cc2sc3cc(NCC[C@@H]4CCCN4C)ccc3c(=O)c2cc1OC | 22 | -12 | -16 | -7.2 | · | -1.8 | -1 | · | 52 | 0.3
COc1cc(C2NC(=O)CCC2[N+](=O)[O-])c(OC)cc1Br (stereo unspecified) | -2 | 16 | 7 | -0.1 | -6 | 0.1 | -2 | 10 | -95 | -0.8
COc1ccnc(Oc2ccccc2)c1C(N)=O | -4 | 22 | 23 | 1.5 | 22 | 3.7 | 3 | -12 | -7 | -2.4
CCCC(=O)N1CC(=O)Nc2ccc(F)cc2C1c1ccccc1 (stereo unspecified) | 7 | 3 | 2 | -0.7 | 1 | -1.0 | · | 9 | -15 | 0.2
Cc1ccc(C(=O)Nc2ccncc2)cc1S(=O)(=O)N1CCOCC1 | 0 | 6 | 9 | 1.2 | -8 | -2.0 | 9 | 2 | -2 | 0.8
Nn1c(Nc2ccccc2)nc2ccccc2c1=O | -5 | · | · | · | -11 | -6.6 | -4 | -5 | -2 | -0.7
CN(C)C(=O)c1ccc(NC(=O)c2cccc(S(=O)(=O)N3CCCCCC3)c2)cc1 | -3 | -2 | 0 | 0.4 | · | 1.4 | ? | · | -5 | 2.1
O=[N+]([O-])c1cccc(/C=N\N2CCN(Cc3ccccc3Cl)CC2)c1 | -40 | · | · | · | -4 | 1.1 | 6 | 8 | -3 | 0.5
COc1cc(NC(=O)c2ccno2)cc(C(=O)Nc2cccc(C(F)(F)F)c2)c1 | -2 | -13 | -2 | 1.0 | 23 | 2.4 | 4 | 7 | -3 | 0.2
Clc1ccc(OCc2nc(-c3ccncc3)no2)c(Br)c1 | 0 | -17 | -4 | -6.9 | 1 | 7.0 | 2 | 47 | -2 | -0.6
Nn1c(SCc2cccc(F)c2)nnc1-c1cccnc1 | -2 | 2 | 11 | -1.8 | 14 | -0.5 | 5 | 1 | -7 | -0.2
CN(C)/C=C/C(=O)c1cnc(-c2cccc(Cl)c2)s1 | -21 | -14 | -14 | 13 | 11 | 4.6 | -3 | -13 | 3 | -2.1

Reprinted at random: two records from the list
SMILES | Beta2AR agonist | rRNA inh HTS | rRNA inh HTS OD600 | rRNA inh HTS RFP | Calb FLC | LANA-H2B inh | Beta apoptosis | T cruzi inh | ALR inh | A1 inh
CCOc1ccc(C(C(=O)NC2CCCC2)N(CCOC)C(=O)CNC(=O)c2ccco2)cc1 (stereo unspecified) | 5 | 8 | 15 | 1.7 | 5 | -4.2 | 2 | -12 | 0 | -0.7
C=C(C)CSc1nnc(CCCCCNC(=O)OC(C)(C)C)o1 | -5 | -4 | 2 | 0.1 | -1 | 1.3 | 3 | 10 | 22 | 1.8

Part of the list above in order of count of non-hydrogen atoms, smallest number first.
SMILES | Beta2AR agonist | rRNA inh HTS | rRNA inh HTS OD600 | rRNA inh HTS RFP | Calb FLC | LANA-H2B inh | Beta apoptosis | T cruzi inh | ALR inh | A1 inh
Clc1ccc(OCc2nc(-c3ccncc3)no2)c(Br)c1 | 0 | -17 | -4 | -6.9 | 1 | 7.0 | 2 | 47 | -2 | -0.6
O=C(NCCOc1ccccc1)c1ccccc1NC(=O)C1CCCO1 (stereo unspecified) | -5 | -1 | -1 | -2.5 | -10 | -0.3 | 2 | -7 | -2 | -0.2
CCN(CC)S(=O)(=O)c1ccc2c(c1)nc(SCC(N)=O)n2-c1ccc(OC)cc1 | -1 | · | · | · | 5 | 1.7 | -1 | 11 | -28 | -1.2

(cont.)
SMILES | Beta2AR agonist | rRNA inh HTS | rRNA inh HTS OD600 | rRNA inh HTS RFP | Calb FLC | LANA-H2B inh | Beta apoptosis | T cruzi inh | ALR inh | A1 inh
COc1cc(OC)c(-c2sc(Nc3ccccc3)n[n+]2-c2ccc(F)cc2)cc1OC | 1 | -3 | 2 | -1.0 | -3 | -3.0 | -6 | -16 | · | 0.5
COC(=O)c1cc(OC)c(OC)cc1NC(=O)c1c(-c2ccccc2Cl)noc1C | 6 | · | · | · | 20 | -3.0 | 3 | 12 | -6 | 0.7
CCC1(CC)NC(=O)N(CC(=O)OC(C)C(=O)Nc2cc([N+](=O)[O-])ccc2OC)C1=O (stereo unspecified) | -2 | -2 | 7 | 1.1 | 3 | 3.5 | · | -5 | -5 | 0.4
O=C(NCCNC(=O)c1cc(Cl)ccc1Cl)c1ccco1 | -6 | 3 | -4 | 3.5 | -5 | -0.2 | · | 9 | -2 | 0.1
COc1cc(CN2CC(=O)N(c3ccc(C)c(C)c3)C2=S)cc(OC)c1OC | 2 | · | · | · | 1 | 0.8 | -5 | 5 | 3 | 0.3
CNc1ccc(NC(C)=O)cc1[N+](=O)[O-] | 3 | · | · | · | -1 | -6.9 | -3 | -12 | 1 | 1.0
CN(CCc1ccccn1)C(=O)CC1C(=O)NCCN1Cc1ccccc1C(F)(F)F (stereo unspecified) | -2 | 8 | 10 | -6.9 | 20 | 4.3 | -3 | 3 | -9 | 1.8
CC(=O)NC(CC(=O)c1ccc([N+](=O)[O-])cc1)C(Cl)(Cl)Cl (stereo unspecified) | 12 | 6 | 1 | -0.8 | -1 | -0.4 | -4 | 4 | · | -0.8
COCC(=O)NCc1ccc2c(c1)OCO2 | -1 | · | · | · | -1 | -1.0 | -4 | -14 | -6 | 0.1
CC1=NOC(=O)/C1=C/c1ccc(-c2ccc(Cl)cc2)o1 | 65* | · | · | · | · | -1.1 | 73 | · | 15 | 0.5
CCCCCCCCn1cc(C(C)=O)c(=O)[nH]c1=O | 3 | · | · | · | ? | -5.5 | -10 | -9 | 0 | -0.6
CCN(CC)S(=O)(=O)c1ccc(C(=O)Nc2ccc(OCC(=O)N3CCOCC3)cc2)cc1 | -18 | · | · | · | -1 | 0.3 | -1 | -8 | -4 | 0.7
CS(=O)(=O)c1ccc(Cl)c(NC(=O)c2cccc(-n3cnnn3)c2)c1 | -12 | 2 | 5 | 0.1 | 3 | 5.7 | 1 | 2 | -5 | -0.1
CCOC(=O)CSc1nc2cc(C(=O)NCc3ccco3)ccc2c(=O)n1C1CCCCC1 | -3 | · | · | · | -16 | 1.0 | -5 | 2 | -3 | -0.3
COc1ccc(N(C)C(=O)c2cn(CC(C)C)c(=O)c3cc(OC)c(OC)cc23)cc1 | -13 | 7 | -3 | 1.5 | 3 | -1.9 | 0 | 14 | -11 | 2.1
COc1ccc(Nc2ncnc3ccc([N+](=O)[O-])cc23)c(OC)c1 | -3 | -1 | 14 | -3.4 | 6 | 2.4 | -3 | 2 | -5 | 0.7
CC(C)(CNC(=O)c1cc(-c2ccc(Cl)s2)nc2ccccc12)N1CCOCC1 | -5 | 9 | 14 | 0.7 | 3 | -0.2 | 12 | 20 | -5 | -0.6
Cc1cc(NC(=O)CSc2nnc3c(C)cc4ccccc4n23)no1 | -21 | 6 | 7 | 4.4 | -10 | 6.0 | -4 | -2 | 9 | -0.2
O=C(O)c1ccc2c(=O)n3c(nc2c1)/C(=C/c1ccc(F)cc1)CC3 | 21 | 6 | -31 | -18 | 1 | 1.9 | -10 | -5 | · | -0.5
CCN1CCCC1CNC(=O)c1ccc2c(c1)N(Cc1cccc(Cl)c1)C(=O)c1ccccc1S2(=O)=O (stereo unspecified) | 2 | -2 | -23 | 4.1 | 6 | -6.4 | · | 24 | 4 | 0.4
O=C(COC(=O)/C=C/c1cccs1)NC(c1ccccc1)c1ccccc1 | -2 | · | · | · | -3 | 5.1 | -15 | 4 | -2 | -0.2
COC(=O)c1ccc(OCC(O)CN2C(=O)c3ccccc3S2(=O)=O)cc1 (stereo unspecified) | 4 | -12 | -28 | 1.2 | 11 | 1.2 | -4 | 2 | -15 | -1.0
COc1ccc(C(=O)COC(=O)c2cc(C)no2)c(OC)c1 | -2 | 4 | -2 | -0.5 | · | 6.6 | 2 | · | 1 | -1.4
COc1ccc(S(=O)(=O)NC(C)C(=O)NCc2cccnc2)cc1Cl (stereo unspecified) | -6 | 8 | 9 | -2.4 | -3 | -1.3 | -1 | -11 | -4 | 0.1
Cc1cc(C)cc(OCC(=O)NNC(=O)c2cc(C)[nH]n2)c1 | 3 | · | · | · | -2 | 1.1 | 0 | -8 | -7 | 0.0
COc1ccc(/C=N/NC(=O)c2ccoc2C)cc1COc1ccc(Cl)cc1 | 7 | · | · | · | -2 | -3.1 | 7 | 36 | -5 | 0.5
Cc1cc(NC(=O)c2ccc([N+](=O)[O-])cc2Cl)ccc1NC(=O)c1ccco1 | -1 | 20 | 20 | 4.2 | -5 | 4.4 | -6 | -7 | -4 | -0.8
CC(C(=O)Nc1cc(C(F)(F)F)ccc1N1CCOCC1)N1C(=O)C2CC=CCC2C1=O (stereo unspecified) | -3 | · | · | · | 4 | 7.7 | 0 | -2 | -14 | -1.0
CC1=C(C(=O)OCC(C)C)C2(O)C(=O)c3ccccc3C2(O)N1 (stereo unspecified) | 1 | · | · | · | -20 | 0.3 | -12 | -5 | 8 | -0.1
CCOc1ccc(OCCSc2nc3ccccc3n2CC(=O)O)cc1 | 0 | -28 | -23 | -4.1 | -7 | 3.7 | -2 | -13 | -2 | -0.6
Cc1cccc(NC(=O)C2CCN(C(=O)c3ccccc3C)CC2)n1 | 0 | 18 | 11 | 2.7 | · | 7.2 | -6 | · | -1 | 0.1
Nc1cc(-c2cccc(F)c2)nn1S(=O)(=O)c1cccc2nsnc12 | -14 | 7 | 5 | -0.2 | 4 | 1.3 | -8 | 0 | -6 | 0.4
COc1ccc2nc(SCC(=O)N3CCNC3=O)[nH]c2c1 | -5 | 2 | 14 | 4.4 | -17 | -3.1 | 6 | -6 | 2 | -1.1
